CBX7 inh: CBX7 chromodomain binding inhibitors, primary screen, biochemical, AlphaScreen; AlphaScreen His6-CBX7 / biotin-H3K27me3 peptide binding; stronger effect = lower value; normalised signal (fraction of DMSO) (test concentration not listed); 66,000 compounds, 1.1% hits; in the data active means normalised signal below about 0.5;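 further: 100 nL library stock added to about 20 µL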
Target sequence (O95931 whole entry, looked up): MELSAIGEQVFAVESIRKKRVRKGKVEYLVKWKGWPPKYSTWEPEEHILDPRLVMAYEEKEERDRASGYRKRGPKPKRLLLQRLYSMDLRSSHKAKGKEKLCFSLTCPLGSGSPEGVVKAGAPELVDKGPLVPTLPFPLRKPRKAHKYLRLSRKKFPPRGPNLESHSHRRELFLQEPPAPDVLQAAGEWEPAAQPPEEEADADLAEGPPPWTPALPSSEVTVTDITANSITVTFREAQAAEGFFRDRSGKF
CBX7 inh z-score: second read-out of CBX7 inh, no call of its own (marks repeat the call); z-score; measured here: z-score of CBX7 signal; some inactives read as strong as hits; reference of the scale not given here;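 same signal on another scale; lower means less binding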
* hit, by the source's call; & = joins results of further samples. An excerpt, so the mix of outcomes need not match the whole.

Every second line gives: CBX7 inh, CBX7 inh z-score
- COc1ccc(-c2cc(C(=O)Nc3sc4c(c3C(N)=O)CCCC4)no2)cc1
  1.17, 0.993
- CCOc1ccc(C(=O)c2cn(Cc3ccccc3)c3cc4c(cc3c2=O)OCO4)cc1
  0.688, -1.1
- C=CCn1c(=O)c(C(=O)Nc2ncccn2)c(O)c2ccccc21
  0.745, -2.75
- Cc1ccc(NC(=O)C(Cc2ccccc2)N2C(=O)c3ccccc3C2=O)cc1 (stereo not drawn)
  0.829, -0.689
- O=C(CCCC1=NS(=O)(=O)c2ccccc2N1)NCCN1CCN(c2ccccc2F)CC1
  1.01, 0.262
- COc1ccc(CCNc2nnc(C)c(=O)[nH]2)cc1OC
  1.06, 2.38
- CCCN1CCN(S(=O)(=O)c2ccc3c(c2)CCN3C(=O)C2CC2)CC1
  1.03, 0.82
- COc1ccc(NC(=O)c2ccc(CNc3c(N4CCC(C)CC4)c(=O)c3=O)cc2)c(OC)c1
  0.975, -0.355
- CCC(C)NC(=O)c1cn(C2CCCCC2)c(=O)c2c1c1ccccc1n2C (stereo not drawn)
  0.995, -0.119
- COc1ccc(-c2noc(CCC(=O)Nc3cccc(C#N)c3)n2)cc1
  0.996, -0.0035
- CC(C)c1ccc(NC(=O)c2cc3c(s2)-c2ccccc2OC3)cc1
  1.28, 13.4
- COc1cc(C(=O)Nc2nc(-c3ccccc3)c(C(C)=O)s2)cc(OC)c1OC
  1.04, 0.581
- Cc1ccccc1NC(=O)C(CC(C)C)N1C(=O)c2ccccc2C1=O (stereo not drawn)
  1.04, 1.08
- CCc1ccc(CN2C(=O)CCC2(C)C(=O)NC2CCCCCCC2)cc1 (stereo not drawn)
  1.26, 2.03
- O=C1CC(c2ccccc2OCc2ccccc2)c2cc3c(cc2N1)OCCO3 (stereo not drawn)
  0.971, -0.236

Arranged by molecular weight (high to low): 5 of the compounds above.
Every second line gives: CBX7 inh, CBX7 inh z-score
- COc1ccc(NC(=O)c2ccc(CNc3c(N4CCC(C)CC4)c(=O)c3=O)cc2)c(OC)c1
  0.975, -0.355
- CCOc1ccc(C(=O)c2cn(Cc3ccccc3)c3cc4c(cc3c2=O)OCO4)cc1
  0.688, -1.1
- O=C1CC(c2ccccc2OCc2ccccc2)c2cc3c(cc2N1)OCCO3 (stereo not drawn)
  0.971, -0.236
- CCCN1CCN(S(=O)(=O)c2ccc3c(c2)CCN3C(=O)C2CC2)CC1
  1.03, 0.82
- CCc1ccc(CN2C(=O)CCC2(C)C(=O)NC2CCCCCCC2)cc1 (stereo not drawn)
  1.26, 2.03

Carrying on.
Every second line gives: CBX7 inh, CBX7 inh z-score
- CCCCOc1ccc(C2C(N3C(=O)c4ccccc4C3=O)C(=O)N2c2ccc(C)cc2)cc1 (stereo not drawn)
  0.892, -3.18
- CCc1nn2c(C)cc(=O)[nH]c2c1C
  1.02, 0.765
- O=C1CCCC2=C1C(c1cccs1)CC(=O)N2c1ccc(C(F)(F)F)cc1 (stereo not drawn)
  1.19, 1.79
- NC(=O)c1ccc(-n2nnnc2SCC(=O)N2CCCCC2)cc1
  1.09, 0.844
- CCc1ccc(N(CC)C(=O)c2cc3c(s2)-c2ccccc2OC3)cc1
  1.07, 3.25
- O=C(CC1(O)C(=O)N(Cc2ccccc2)c2ccccc21)c1ccc(F)cc1 (stereo not drawn)
  0.899, -0.807
- Cc1cc(N2CCC(C)CC2)nc2ccc(NC(=O)COc3ccc(Cl)cc3Cl)cc12
  0.998, -0.0339
- COc1ccccc1C(CCNS(=O)(=O)c1ccccc1)c1ccc2c(c1)OCO2 (stereo not drawn)
  0.608, -3.07
- COC(=O)c1ccc(NC2c3ccccc3C(=O)N2c2ccc(C)cn2)cc1 (stereo not drawn)
  0.914, -1.15
- CCOc1ccc(N2C(=O)C3C4C=CC(C4)C3(C)C2=O)cc1 (stereo not drawn)
  1.1, 1.29
- CC1CCN(CC(O)COCc2ccc(Cl)cc2)CC1 (stereo not drawn)
  1.06, 0.953
- O=C(NCCCn1ccnc1)C(=O)NCc1ccc(Cl)cc1
  1.06, 0.678
- OC(CNc1ccccc1)Cn1c2ccccc2c2ccccc21 (stereo not drawn)
  0.983, -0.473
- COc1ccc(C2(CNC(=O)C(c3ccccc3)c3ccccc3)CCOCC2)cc1OC
  1.04, 0.864
- COCCNC(=O)c1c[nH]c2ccc(S(=O)(=O)Nc3cccc(C(F)(F)F)c3)cc2c1=O
  1.04, 0.511

One compound at a time (already shown). Screens in order: CBX7 inh	CBX7 inh z-score
Results for COc1ccccc1C(CCNS(=O)(=O)c1ccccc1)c1ccc2c(c1)OCO2 (stereo not drawn) : 0.608	-3.07
Results for O=C(CC1(O)C(=O)N(Cc2ccccc2)c2ccccc21)c1ccc(F)cc1 (stereo not drawn) : 0.899	-0.807

(cont.)
Every second line gives: CBX7 inh, CBX7 inh z-score
- CCc1ccccc1N(CC)C(=O)c1cc2c(s1)-c1ccccc1OC2
  1.3, 14.3
- COc1ccccc1-c1cc(C(=O)Nc2ccc(OC(F)(F)F)cc2)no1
  1.05, 1.31
- COc1cc2c(cc1OC)C(c1ccccc1Cl)CC(=O)N2 (stereo not drawn)
  0.764, -2.32
- O=C(CSc1ccc2nnc(-c3ccccc3)n2n1)Nc1ccc2c(c1)OCO2
  0.837, -1.95
- COc1ccc(C(=O)Nc2c3c(nn2-c2ccc(C)cc2C)CS(=O)(=O)C3)cc1
  0.913, -0.998
- Cc1nc2cc(-c3cccc(F)c3)nn2c(C)c1CCC(=O)NCc1ccc(Cl)cc1
  0.998, -0.0746
- Cc1ccc(C(=O)c2nocc2C(=O)c2cccs2)cc1
  1.04, 0.412
- CCCC(=O)NCCc1cc2ccc(OC)cc2[nH]c1=O
  1.04, 1.31
- O=C1CCCC2=C1C(c1ccsc1)CC(=O)N2c1ccc(C(F)(F)F)cc1 (stereo not drawn)
  1.22, 2.08
- CC1CCN(C(=O)c2cc(-c3ccc(F)cc3)on2)CC1
  0.987, -0.0168
- O=C(Nc1ccc(Cl)cc1Cl)c1cccnc1Oc1ccc(F)cc1
  0.957&1.14, -1.14&1.31
- Cc1nc2ccccc2n1CCOc1ccc(F)cc1
  1.03, 0.903
- CCCCN(C)C(=O)c1ccc(Cl)c(NC2=NC3CS(=O)(=O)CC3S2)c1 (stereo not drawn)
  1.15, 1.57
- CCOC(=O)c1cnc2cc(C(F)(F)F)ccc2c1N1CC(C)CC(C)C1 (stereo not drawn)
  1.15, 2.67
- COc1ccc(-c2nn(C)c3sc(C(=O)NCC4(c5ccccc5)CCCC4)cc23)cc1OC
  0.874, -3.54

Quoted at random: 2 records from the list.
Every second line gives: CBX7 inh, CBX7 inh z-score
- CCCCN(C)C(=O)c1ccc(Cl)c(NC2=NC3CS(=O)(=O)CC3S2)c1 (stereo not drawn)
  1.15, 1.57
- CCCC(=O)NCCc1cc2ccc(OC)cc2[nH]c1=O
  1.04, 1.31

More entries
| structure | CBX7 inh | CBX7 inh z-score |
| --- | --- | --- |
| O=C(NCCCN1CCOCC1)c1ccc2c(c1)N(Cc1ccc(F)cc1)C(=O)CS2 | 1.02 | 0.158 |
| O=C1CCc2cc(S(=O)(=O)N3CCCC3C(=O)NC3CCCCC3)ccc2N1 (stereo not drawn) | 0.954 | -0.829 |
| CCOc1ccc(C(=O)c2cn(Cc3ccc(C)cc3)c3ccc(OC)cc3c2=O)cc1 | 0.591 | -3.9 |
| O=C(c1cccc(NC2=NC3CS(=O)(=O)CC3S2)c1)N1CCN(c2ccccn2)CC1 (stereo not drawn) | 0.956 | -0.475 |
| COC(=O)CN1C(=O)CSc2nc(C)cc(C)c21 | 1.04 | 0.907 |
| CCC1CCCCN1C(=O)CSc1nnc(CNC(=O)c2cccs2)o1 (stereo not drawn) | 0.996 | -0.185 |
| COC(=O)c1sccc1NC(=O)Cn1ncc2c1-c1ccccc1OC2 | 0.986 | -0.0832 |
| CCOc1ccc(OCCCCCN2CCN(c3ccc(C)c(Cl)c3)CC2)cc1 | 0.638 | -7.18 |
| O=C(Nc1ccc(Cl)c(Cl)c1)C1CC(=O)N(c2ccc(F)cc2)C1 (stereo not drawn) | 1.06 | 0.636 |
| CCOc1ccccc1CNC(=O)CCc1cn(Cc2ccccc2)c2ccccc12 | 0.874 | -2.18 |
| COc1ccc(-n2c(=O)cc(N3CCN(C)CC3)[nH]c2=O)cc1 | 1.03 | 0.214 |
| COc1ccc(CC(=O)Nc2ccc(-c3noc(COc4ccccc4C)n3)cc2)cc1 | 1.01 | 0.0802 |
| COc1ccccc1N1CCN(Cc2nc(-c3ccccc3)no2)CC1 | 1 | 0.0268 |
| COc1ccc(Cl)cc1N1CC(c2nc3ccccc3n2Cc2cccc(C)c2)CC1=O (stereo not drawn) | 0.941 | -1.13 |
| Cc1cc(OCC(=O)NCCc2nc3ccccc3[nH]2)cc(C)c1Cl | 0.909 | -2.27 |
| CCC(c1nc2ccccc2n1C)C(O)c1ccccc1 (stereo not drawn) | 0.993&1.09 | -0.191&0.404 |
| Cc1ccccc1-c1nc(CSCC(=O)N2CCCC2)c(C)o1 | 0.868 | -2.11 |
| Cc1ccc(NC(=O)CCc2nnc3ccc(N4CCC5(CC4)OCCO5)nn23)cc1 | 1.03 | 0.606 |
| COc1ccc(Cl)cc1N1CC(c2nc3ccccc3n2CCOc2ccc(C)cc2)CC1=O (stereo not drawn) | 0.904 | -1.84 |
| CCN(CC)S(=O)(=O)c1ccc2c(c1)N(CC(=O)Nc1ccc(F)cc1C)C(=O)CO2 | 1.04 | 1.68 |
| COc1ccc(C2C(Oc3ccc(Cl)cc3C)C(=O)N2c2ccccc2Cl)cc1OC (stereo not drawn) | 0.961 | -0.832 |
| Cc1ccc(Cl)cc1NS(=O)(=O)c1cnc[nH]1 | 1 | 0.0264 |
| Cc1sc2ncnc(Nc3cccc(Cl)c3)c2c1S(=O)(=O)N1CCC(C)CC1 | 0.906 | -1.19 |
| CCOC(=O)c1c(NC(=O)C(C)Oc2ccc(F)cc2)sc2c1CCC(CC)C2 (stereo not drawn) | 1.13 | 5.27 |
| Cc1ccc(-c2nn3c(C)nnc3s2)cc1NC(=O)COc1ccc(Cl)cc1C | 1.05 | 1.51 |
| Cc1ccc(-c2nnc(Nc3ccc4c(c3)OCO4)c3ccccc23)cc1S(=O)(=O)NC(C)C | 0.827 | -1.95 |
| Cc1ccc(C)c(Nc2nnc(-c3ccc(C)c(S(=O)(=O)N4CCN(C)CC4)c3)c3ccccc23)c1 | 0.706 | -0.33 |
| CCOc1cc2c(cc1OCC)C(c1ccc(CC)cc1)NCC2 (stereo not drawn) | 1.14 | 2.31 |
| COc1ccc(-n2ccnc2SCC(=O)Nc2ccc(Cl)cc2)cc1 | 0.902 | -0.13 |
| COc1ccc(OC)c(CCNC(=O)c2csc3c2CCCC3)c1 | 1.02 | 0.631 |

Later entries
| structure | CBX7 inh | CBX7 inh z-score |
| --- | --- | --- |
| Oc1cccc(Nc2nnc(-c3ccc(Cl)cc3)c3ccccc23)c1 | 0.538 | -8.69 |
| CC(C)(C)C1CCc2nc(SCc3ccccn3)c(C#N)c(-c3cccs3)c2C1 (stereo not drawn) | 1.02 | 0.0203 |
| CCOC(=O)c1ccc(NC(=O)C2(S(=O)(=O)c3ccc(Cl)cc3)CC2)cc1 | 1.2 | 2.52 |
| CCc1ccc(NC(=O)C2CCN(S(=O)(=O)c3cccc4cccnc34)CC2)cc1 | 0.854 | -1.88 |
| O=C(c1cc2c(s1)-c1ccccc1OC2)N1CCc2ccccc2C1 | 1.32 | 7.7 |
| CCC1Oc2ccc(Cl)cc2N(CC(=O)NCc2cccc(OC)c2)C1=O (stereo not drawn) | 0.589 | -7.1 |
| FC(F)(F)c1cccc(-c2nnc3ccc4ccccc4n23)c1 | 0.872 | -2.03 |
| COc1ccccc1CNC(=O)CN1C(=O)CSc2ccc(S(=O)(=O)N3CCCCC3)cc21 | 1 | 0.191 |
| COc1ccc(-c2nnc(SCC(=O)N3CCCCC3C)o2)cc1 (stereo not drawn) | 0.92 | -0.184 |
| COc1ccc(Nc2ncc(C(=O)NC3CCCCC3)c3ccccc23)cc1 | 0.964 | -0.583 |
| CCOc1ccccc1NC(=O)CCc1c(C)nc2cc(-c3ccccc3)nn2c1C | 1.09 | 0.974 |
| O=C1CCc2cc(S(=O)(=O)N3CCC(C(=O)N4CCCCC4)CC3)ccc2N1 | 0.813 | -2.22 |
| O=C(c1c[nH]c2ccc(S(=O)(=O)N3CCCCCC3)cc2c1=O)N1CCOCC1 | 0.916 | -0.084 |
| CN1CCN(C(=O)c2ccc3c(c2)N(Cc2ccccc2F)C(=O)c2ccccc2S3(=O)=O)CC1 | 1.05 | 1.38 |
| CCC(C)NC(=O)CNC(=O)c1nn(-c2ccc(OC)cc2)c(=O)c2ccccc12 (stereo not drawn) | 1.11 | 2.17 |
| COc1ccc(-n2ncc3c(NCCN4CCOCC4)ncnc32)cc1 | 0.905 | -1.49 |
| Cc1ccc2nc(-c3cccc(Cl)c3)c(Nc3ccc4c(c3)OCO4)n2c1 | 0.768 | -3.8 |
| O=C(NCc1cccnc1)C1(S(=O)(=O)c2ccc(Cl)cc2)CC1 | 1.03 | 0.777 |
| CC(C)CCNC(=O)c1ccc2c(c1)N(Cc1ccccc1Cl)C(=O)CS2 | 1.06 | 1.38 |
| Cc1cc(Nc2ccc(Br)cc2)c2ccc(C)c(C)c2n1 | 1.12 | 1.04 |
| COc1cc(NC(=O)CC2Sc3ccccc3NC2=O)cc(OC)c1 (stereo not drawn) | 0.97 | -0.194 |
| O=C(C1CC(c2ccc(F)cc2)=NO1)N1CCN(c2ccc(F)cc2)CC1 (stereo not drawn) | 1.03 | 1.47 |
| NC(=O)c1ccccc1NC(=O)c1cc(-c2cccs2)nc2ccccc12 | 0.984 | -0.715 |
| COc1ccccc1CNC(=O)c1ccc2c(c1)n(C)c(=O)c(=O)n2C | 0.878 | -0.481 |
| CCOc1ccc(CCN2C(=O)CC(Cc3ccc(Cl)cc3)C2=O)cc1OCC (stereo not drawn) | 0.968 | -0.359 |
| CC1CCN(S(=O)(=O)c2ccc3c(c2)N(CC(=O)NCCc2ccc(Cl)cc2)C(=O)CO3)CC1 | 0.994 | -0.0973 |

Bioassay records: PubChem, several laboratories
